TRPML1 inh = qHTS for Inhibitors of the Human Mucolipin Transient Receptor Potential 1 (TRPML1); Mucolipin-1 (Homo sapiens), Q9GZU1; TRPML1-inducible cells, Ca2+ dye fluorescence, FDSS; active compounds read low; inhibition of EC80 agonist-evoked calcium signal; activity change, negative = inhibition, % (no concentration beside the values); 390,000 tested, 0.02% active; AID 624415, 2012; in the data active means activity change below about -50%; inconclusive means about -30% to -50%; inactive means above about -30%;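 note: stimulus is agonist 54-4 at its EC80 concentration; % is set by controls: 0 for no effect and ±100 for the full control effect; compound concentration not given in the record; the text of the record puts the active cut at -80%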
Target sequence (Q9GZU1 whole entry, looked up): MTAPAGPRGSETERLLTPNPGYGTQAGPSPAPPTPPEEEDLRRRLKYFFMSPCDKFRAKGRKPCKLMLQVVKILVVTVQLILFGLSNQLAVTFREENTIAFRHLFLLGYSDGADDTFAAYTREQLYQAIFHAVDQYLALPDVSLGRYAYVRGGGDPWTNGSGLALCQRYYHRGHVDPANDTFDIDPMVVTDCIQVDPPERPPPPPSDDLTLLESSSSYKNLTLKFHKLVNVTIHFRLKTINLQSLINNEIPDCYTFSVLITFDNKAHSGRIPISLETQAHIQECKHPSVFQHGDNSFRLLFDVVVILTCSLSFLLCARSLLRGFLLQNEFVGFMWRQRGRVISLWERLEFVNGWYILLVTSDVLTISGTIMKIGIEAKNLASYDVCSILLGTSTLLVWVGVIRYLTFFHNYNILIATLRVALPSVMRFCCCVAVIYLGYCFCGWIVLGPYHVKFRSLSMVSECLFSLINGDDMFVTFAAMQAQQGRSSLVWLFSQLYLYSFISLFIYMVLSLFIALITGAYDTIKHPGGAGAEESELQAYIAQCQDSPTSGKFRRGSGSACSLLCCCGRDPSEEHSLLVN
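Tet-induced TRPML1-DL cells loaded with Ca8 no-wash calcium dye were read kinetically on FDSS. Compound addition was followed by EC80 agonist 54-4 (4 uM final); inhibition was read over 110 s.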
ClpP mod = qHTS Assay for Activators of ClpP. ATP-dependent Clp protease proteolytic subunit (Bacillus subtilis (strain 168)), P80244. purified B. subtilis ClpP, FRET peptide cleavage, 20 min. Potency, µM (doses to about 57.5 µM), inactives show at the top dose activity change, negative = active. 340,000 tested, 1.9% active. AID 651965, 2013; active = well fitted falling curve with a large enough effect; inconclusive = small, poorly fitted or top-dose-only effect; inactive = no such curve, though single readings can be large or run the other way; note: potency is the fitted concentration of half-maximal effect; the source files actives as falling curves though it sought activators and does not explain the sign; nearly all actives have a fitted effect of over 65% in size; many hits overshoot -100%
Target sequence (P80244 whole entry, looked up): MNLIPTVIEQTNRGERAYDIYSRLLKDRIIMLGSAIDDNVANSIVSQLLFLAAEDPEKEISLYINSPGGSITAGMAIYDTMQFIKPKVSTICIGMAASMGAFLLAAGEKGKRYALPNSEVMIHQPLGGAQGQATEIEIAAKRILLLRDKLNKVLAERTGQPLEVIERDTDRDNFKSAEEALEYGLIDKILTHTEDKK
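FRET quenching reversal measured ClpP activation: 10 microg/mL B. subtilis ClpP at pH 8 with the FRET-FV decapeptide, read at 430 nm after 320 nm excitation. The 20-min minus 0-min signal was scaled between DMSO/no-enzyme wells and ADEP (5.8 microM final).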
gsp antag = qHTS for Antagonists of gsp, the Etiologic Mutation Responsible for Fibrous Dysplasia/McCune-Albright Syndrome: qHTS; Potency, µM (doses to about 76.9 µM), inactives show at the highest dose activity change, negative = inhibition, actives largely listed as inhibitors; gsp-mutant cells, cAMP HTRF, 30 min; control for the full effect not named in the record; 340,000 tested, 0.4% active; AID 624288, 2012; active = falling curve of any shape with a large fitted effect; inconclusive = falling curve, mostly with a smaller effect; inactive = flat or rising curve; cell line not stated here;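 note: intracellular cAMP measured with PDE inhibitor Ro 20-1724 present during compound exposure; potency is the fitted concentration of half-maximal effect; % is set by controls: 0 for no effect and ±100 for the full control effect; nearly all actives have a fitted effect of over 65% in size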
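Cells in G418 medium, seeded 16-24 h, 37C; buffer exchange to DPBS + 1 mM CaCl2, 0.5 mM MgCl2, 0.05% BSA; cpds in DMSO + […] (300 uM stock), 30 min 37C; HTRF cAMP detection.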
gsp ag = qHTS for Agonist of gsp, the Etiologic Mutation Responsible for Fibrous Dysplasia/McCune-Albright Syndrome: qHTS | gsp mutant cells, cAMP HTRF, 30 min; control for the full effect not named in the record | Potency, µM (titrated, usually from 76.9 µM), for inactives: top-dose activation (cAMP increase), usual class: activators | 340,000 tested, 0.13% active | AID 624287, 2012; active = well fitted activation curve with a large enough effect; inconclusive = small, poorly fitted or top-dose-only effect, or another doubt; inactive = no such curve, though single readings can be large or run the other way; cell line not stated here;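 note: phosphodiesterase inhibitor Ro 20-1724 added with compounds to block cAMP breakdown; potency is the fitted concentration of half-maximal effect; nearly all actives have a fitted effect of over 60% in size; about a fifth of the inactives were tested at one dose only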
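Cells stably selected in G418 were plated at 2000/well, grown 16-24 hr, then given compounds in DMSO with the PDE inhibitor […] (300 uM solution added) for 30 min at 37C; cAMP was read by HTRF.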
TRPML1 ag = qHTS for Agonists of the Human Mucolipin Transient Receptor Potential 1 (TRPML1); Mucolipin-1 (Homo sapiens), Q9GZU1; TRPML1-expressing cells, Ca2+ dye fluorescence, FDSS; host cell line not named in the record; reference of the full effect not given here; activation, % (no concentration beside the values); 410,000 tested, 0.12% active; AID 624414, 2012; in the data active = activation above about 50%; inconclusive = about 30% to 50%; inactive = below about 30%; note: 0% is about no effect; the text of the record puts the active cut at 80%
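Kinetic FDSS Ca2+ read in Tet-induced TRPML1-DL cells (ABD Ca8 dye plus quencher, 45-90 min RT loading): baseline, then compound, then 110 s agonist window; EC80 agonist 54-4 at 4uM final added afterwards for a 110 s antagonist window.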
Menin MLL FP FL = qHTS Assay for Inhibitors Targeting the Menin-MLL Interaction in MLL Related Leukemias: Competition With Fluorescein Labeled MLL-derived Peptide | Fluorescence polarization, fluorescein-MLL peptide displacement from menin | FP activity change, % at 61.4 µM | 290,000 tested, under 10 active | AID 1766, 2009; inconclusive = falling polarisation curve, or a change in total fluorescence; inactive = total fluorescence flat and polarisation flat or rising; no compound was filed as active; the % refers to the polarisation; negative = inhibition;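 note: % of control where 0% means no effect; inhibitors lower the polarisation; unlabelled MLL peptide was the positive control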
* = called active by the depositor; ? = inconclusive; . = not tested or not shown; & = joins results of further samples; [ ] = dose if it differs, or a comment.

| structure | TRPML1 inh | ClpP mod | gsp antag | gsp ag | TRPML1 ag | Menin MLL FP FL |
| --- | --- | --- | --- | --- | --- | --- |
| CCc1ccc(C(=O)NNc2ccc(F)cc2F)cc1 | -9 | 0.4% | 6% | -2%[15.4 µM] | -0.1 | 3.2 |
| NC(Cc1ccc(O)cc1)c1cn([C@@H](CCC(=O)O)C(=O)N2CCNCC2)nn1 (stereo partly drawn) | -5 | -2.8% | -3% | . | -0.1 | -8.0 |
| COc1cc(OC)c(NC(=O)c2cc(S(=O)(=O)N3CCCC3)cn2C)cc1Cl | 16 | -4.1% | . | . | 0.4 | . |
| CC(=O)N1CCN(c2ccc(NC(=O)c3ccc4c(c3)OCCO4)cc2Cl)CC1 | 26 | 0.3% | -18% | -2%[15.4 µM] | 0.8 | -0.3 |
| O=C(c1cccc(N2C(=O)C3C4C=CC(C4)C3C2=O)c1)N1CCCCCC1 (stereo not drawn) | 11 | 1.7% | 0%[15.4 µM] | 1% | 0.5 | -2.3 |
| CC(C)[C@H](NC(=O)c1ccccc1F)C(=O)OCC(=O)Nc1sccc1C(N)=O | -6 | -0.3% | -21% | -28% | 0.2 | . |
| Cc1ccc(NC(=O)c2nc[nH]c2C(=O)NCCN(CCNC(=O)c2[nH]cnc2C(=O)Nc2ccc(C)cc2)CCNC(=O)c2[nH]cnc2C(=O)Nc2ccc(C)cc2)cc1 | -2 | ? | 0% | 5% | -0.7 | . |
| O=C(NCc1ccco1)c1ccc(Cn2cc([N+](=O)[O-])cn2)o1 | 7 | -2.4% | 2% | -4% | 0.1 | 4.3 |
| Cc1cc(-c2nnc(SCC(=O)Nc3ccc(Br)cc3F)n2N)n[nH]1 | -2 | 1.9% | -16% | -17% | -1.2 | . |
| CCCN1CCN(CC(=O)Nc2nnc(CC)s2)CC1 | -4 | 2.0% | 4% | -9%[15.4 µM] | -0.3 | -0.1 |
| Cc1onc(-c2ccccc2)c1-c1nnc(COC(=O)c2ccc(N(C)C)cc2)o1 | 4 | ? | . | -2% | 0.1 | . |
| O=C(O)C1C2CCC(O2)C1C(=O)Nc1ccc(F)c(Cl)c1 (stereo not drawn) | . | -1.1% | 9% | 0% | . | -3.2 |

Next results.
| structure | TRPML1 inh | ClpP mod | gsp antag | gsp ag | TRPML1 ag | Menin MLL FP FL |
| --- | --- | --- | --- | --- | --- | --- |
| CC(=O)Oc1ccc(N(C(C)=O)S(=O)(=O)c2ccc3ccccc3c2)cc1Br | . | 1.6% | -21% | 17% | . | -0.4 |
| CCN(CC)S(=O)(=O)c1cccc(-c2nnc(SCC(N)=O)n2C)c1 | -17 | . | 10% | 17%[15.4 µM] | 0.3 | 1.5 |
| CCCCOC(=O)/C=C\C(=O)OCCCC | 49 | -1.2% | -1% | -36%[inhibitor] | 0.3 | -1.5 |
| CCS(=O)(=O)c1ccc(N)cc1 | -22 | 1.1% | 18% | -8% | 0.1 | -1.6 |
| O=C(O)c1ccc(Nc2ccc(Cl)c(Cl)c2)c([N+](=O)[O-])c1 | . | 1.2% | ? | -3% | . | 5.5 |
| CCOCc1c(C(=O)Nc2ccccc2N2CCN(C)CC2)oc2ccccc12 | -7 | -5.0% | -3% | -8% | -0.7 | . |
| COc1ccc(-c2cc(-c3ccccc3)n[nH]2)c(O)c1 | 0 | . | -10% | -3% | -0.7 | 5.6 |
| CCN1CCN(CC(=O)NC2CCCCC2)C(=O)C1=O | -9 | -0.7% | 8% | -1% | -0.5 | 1.8 |
| Cc1ccc(Nc2nnc(-c3ccc4c(c3)OCO4)o2)c(C)c1 | 83 | -16% | -11% | -9% | 4.7 | 4.2 |
| CN(Cc1ccccn1)C(=O)CC1C(=O)NCCN1Cc1cccc(Oc2ccccc2)c1 (stereo not drawn) | -16 | . | 9% | -14% | -0.4 | -13 |
| COc1ccc(N(CC(=O)Nc2ccc(C)c(C)c2)C2=NC3CS(=O)(=O)CC3S2)cc1 (stereo not drawn) | -4 | 0.9% | 12% | -2% | -0.6 | -1.8 |
| CC(=O)N1CCN(CC(C)(C)NS(=O)(=O)c2ccc(C)cc2)CC1 | -20 | -2.5% | 9% | 3% | 0.5 | . |

Fetched by compound from the list above:
| structure | TRPML1 inh | ClpP mod | gsp antag | gsp ag | TRPML1 ag | Menin MLL FP FL |
| --- | --- | --- | --- | --- | --- | --- |
| CCN1CCN(CC(=O)NC2CCCCC2)C(=O)C1=O | -9 | -0.7% | 8% | -1% | -0.5 | 1.8 |
| CCOCc1c(C(=O)Nc2ccccc2N2CCN(C)CC2)oc2ccccc12 | -7 | -5.0% | -3% | -8% | -0.7 | . |

Next section
| structure | TRPML1 inh | ClpP mod | gsp antag | gsp ag | TRPML1 ag | Menin MLL FP FL |
| --- | --- | --- | --- | --- | --- | --- |
| COc1ccc(CCNC(=O)CCC(=O)Nc2ccccc2[N+](=O)[O-])cc1OC | 3 | -0.8% | 21% | 10% | -0.5 | -4.7 |
| COc1cc(OC)cc(C(=O)NCC(=O)OCC(=O)Nc2cc(S(C)(=O)=O)ccc2Cl)c1 | -22 | -3.4% | 1% | -17% | 0.8 | 5.2 |
| Cc1cccc[n+]1CC(=O)c1ccc2c(c1)OCCO2 | 8 | -1.8% | 2% | ? | 4.0 | 0.9 |
| CCc1ccc(O)c(CNCCNCc2cc(CC)ccc2O)c1 | 1 | 1.1% | 7% | ? | -0.7 | . |
| NC(=O)c1nsc(C(=O)N(c2ccccc2)C(C(=O)NCC2CCCO2)c2ccc(F)cc2)c1N (stereo not drawn) | -12 | . | -1% | 4% | 0.7 | 3.0 |
| COc1cccc(CNC(=O)CCCc2cn(C)c3ccccc23)c1 | . | -22% | 0% | 9% | . | -12 |
| O=C(c1cccs1)n1nc(-c2cccnc2)nc1NCc1ccco1 | 6 | . | -13% | 6%[15.4 µM] | 2.7 | 0.2 |
| CCOc1ccc(C(=O)c2cn(CC(=O)Nc3cc(OC)cc(OC)c3)c3ccc(F)cc3c2=O)cc1 | -2 | -6.1% | . | . | 0.6 | . |
| Nc1ccccc1-n1nc2ccc3ccccc3c2n1 | 6 | 3.7% | . | ? | -0.9 | . |
| C=CC[C@@H](CC(=O)N(CCO)Cc1ccccc1)C(=O)NC[C@H](OC(=O)[C@@H](CC=C)Cc1ccc(F)cc1)c1ccccc1 | 11 | 0.5% | ? | ? | 2.1 | . |
| Cc1nnc(SCC(=O)N2CCN(c3ccccc3F)CC2)n1C1CC1 | 5 | -1.4% | 7% | 1%[15.4 µM] | -0.5 | . |
| CCN1c2ccccc2-c2nc(SCC(=O)Nc3c(C)cc(C)cc3C)ncc2S1(=O)=O | -4 | -13% | . | . | 1.1 | . |

Further structures follow:
Under each structure – TRPML1 inh	ClpP mod	gsp antag	gsp ag	TRPML1 ag	Menin MLL FP FL
> CCOC(=O)C1=CCN(S(=O)(=O)c2cccc(Cl)c2)C1c1cccc(F)c1 (stereo not drawn)
    12	-2.8%	.	.	3.9	.
> COc1ccc(-c2oc3ncn(Cc4ccco4)c(=N)c3c2-c2ccc(OC)cc2)cc1
    14	?	50µM*	-1%	0.8	0.5
> N#Cc1nc(COc2ccccc2F)oc1NCCc1ccccc1
    11	0.5%	-20%	0%	0.4	11
> COc1ccc(CNC(=O)C[C@H]2C(=O)N(CCc3ccccc3)C[C@@H]2Cc2ccccc2)cc1
    -6	0.7%&-0.1%	-27%	-6%	1.0&4.2	-0.2
> CN(C)S(=O)(=O)NCCNc1ccc(C(F)(F)F)cc1[N+](=O)[O-]
    -5	-0.7%	-2%	8%	-0.1	-2.4
> CC(=O)Nc1cccc(C(=O)OC2CCOC2=O)c1 (stereo not drawn)
    3	-5.6%	10%	15%	-0.6	.
> CN1CCN(c2ccc(S(=O)(=O)N3CCCCC3)cc2NC(=O)Cc2ccc(Cl)cc2)CC1
    17	-2.6%	5%	0%[15.4 µM]	13	4.5
> CCOC(=O)C1=CCC(c2cccc3ccccc23)N(S(=O)(=O)c2ccc(C)cc2)C1 (stereo not drawn)
    70	-20%	.	.	-0.1	.
> COc1ccc(C(CC(=O)O)NC(=O)c2ccccc2[N+](=O)[O-])cc1 (stereo not drawn)
    13	-2.1%	6%	3%	0.0	-2.2
> Cc1cc(C(=O)NC2=NCCS2)cs1
    -19	-1.4%	8%	-28%	0.3	-0.1
> C[n+]1cccc(C(=O)Nc2ccccc2)c1
    .	-0.9%	13%	-14%	.	-1.1
> Cc1cc(C)c2c(CN3CCN(c4ccccc4F)CC3)cc(=O)oc2c1
    -5	-4.5%	.	.	-0.3	.
> Cc1cc(=O)[nH]c(/N=C(\N)Nc2cccc3ccccc23)n1
    1	-0.4%	8%	-12%	-1.3	2.9
> CCC(=O)NCc1ccc2[nH]c(C)cc2c1
    13	-0.7%	6%	7%	0.7	-9.4
> NC(=O)CC(NC(=O)c1ccccc1)c1ccc(NC2CCCCCCC2)c([N+](=O)[O-])c1 (stereo not drawn)
    -6	0.4%	-12%	3%	0.0	-6.2

Sorted by the number under TRPML1 inh (rising): three of the compounds above.
structure,TRPML1 inh,gsp ag,Menin MLL FP FL
Cc1cc(C)c2c(CN3CCN(c4ccccc4F)CC3)cc(=O)oc2c1,-5,.,.
CC(=O)Nc1cccc(C(=O)OC2CCOC2=O)c1 (stereo not drawn),3,15%,.
N#Cc1nc(COc2ccccc2F)oc1NCCc1ccccc1,11,0%,11

(listing goes on)
Under each structure – TRPML1 inh	ClpP mod	gsp antag	gsp ag	TRPML1 ag	Menin MLL FP FL
> CC1CCCC(NC(=O)NC(=O)CCl)C1C (stereo not drawn)
    0	-0.5%	2%	-12%	0.1	3.2
> Cn1c(N)c(C(=O)COC(=O)c2cccc(S(=O)(=O)NCc3ccccc3)c2)c(=O)n(C)c1=O
    15	0.5%	3%	0%	-0.4	.
> CCCCOc1ccc(S(=O)(=O)Nc2ccc(-c3ccc(N4CCCCCC4)nn3)cc2)cc1
    9	-13%	.	.	-0.7	.
> O=C(N/C(=C/c1ccc(Br)cc1)C(=O)N1CCOCC1)c1ccc(Br)o1
    5	1.1%	8%	-14%	0.6	0.3
> Clc1ccccc1OCc1nnc(-c2ccccc2Br)o1
    -10	0.2%	-6%	18%	1.5	1.5
> Nc1nc2n(n1)C(c1c(F)cccc1Cl)CC(c1ccc(F)cc1)N2 (stereo not drawn)
    8	-2.9%	4%	15%	4.7	3.5

Assay outcomes (PubChem BioAssay)
